Screening results: PubChem, National Center for Advancing Translational Sciences (NCATS)
D2 ag: agonists of human D2 dopamine receptor (beta-arrestin); DiscoveRx PathHunter D2 beta-arrestin, luminescence, 90 min; 100% = 57 uM dopamine signal; P14416; activation, % (no concentration beside the values); hit rate 0.084% among 360,000; in the data active = activation above about 40%; inconclusive = about 15% to 40%; inactive = below about 15%; further: compound concentration not given in the record; the text of the record calls up to 30% inactive
Target sequence (P14416 whole entry, looked up): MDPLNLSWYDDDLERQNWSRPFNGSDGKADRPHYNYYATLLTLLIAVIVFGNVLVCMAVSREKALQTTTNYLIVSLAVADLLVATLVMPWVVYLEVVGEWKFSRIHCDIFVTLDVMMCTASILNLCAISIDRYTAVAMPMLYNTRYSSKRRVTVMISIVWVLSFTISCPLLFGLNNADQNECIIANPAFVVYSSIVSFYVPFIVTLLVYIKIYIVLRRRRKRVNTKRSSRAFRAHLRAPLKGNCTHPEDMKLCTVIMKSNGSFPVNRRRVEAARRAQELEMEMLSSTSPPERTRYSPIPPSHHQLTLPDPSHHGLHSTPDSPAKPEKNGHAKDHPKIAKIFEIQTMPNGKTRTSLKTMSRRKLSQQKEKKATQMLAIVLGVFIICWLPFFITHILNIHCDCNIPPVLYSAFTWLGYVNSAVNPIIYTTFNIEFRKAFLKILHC
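Agonist mode: compounds alone added to overnight-plated D2 PathHunter cells for 90 min at 37 C, with 57 uM final dopamine (EC100) defining full response. Beta-arrestin recruitment detected by chemiluminescent reagent, read after 1 h at ambient temperature.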
gsp agonist: activates gsp, the McCune-Albright syndrome mutation; gsp mutant cells, cAMP HTRF, 30 min; control for the full effect not named in the record; hit rate 0.13% among 340,000; Potency, µM (highest dose often 76.9 µM), inactives show at the highest dose activation (cAMP increase), actives largely listed as activators; AID 624287; active = well fitted activation curve with a large enough effect; inconclusive = small, poorly fitted or top-dose-only effect, or another doubt; inactive = no such curve, though single readings can be large or run the other way; cell line not stated here;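 further: phosphodiesterase inhibitor Ro 20-1724 added with compounds to block cAMP breakdown; potency means the concentration at half of the fitted maximal effect; nearly all actives have a fitted effect of over 60% in size; about a fifth of the inactives were tested at one dose only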
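Cells in DMEM/10% FBS with G418 were pretreated with compounds in DMSO plus […] (300 uM stock) for 30 min at 37C. cAMP was measured by HTRF (cAMP-d2 plus anti-cAMP antibody-K) after 30 min at room temperature.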
PINK1 expr mod: changes PINK1 expression; PINK1 immunofluorescence, high-content cytometry, 24 h; Potency, µM (series often up to 76.6 µM), without a hit: at the top dose activation (PINK1 increase), hits mostly activators; hit rate 0.2% among 410,000; AID 624263; active = well fitted activation curve with a large enough effect; inconclusive = small, poorly fitted or top-dose-only effect; inactive = flat fitted curve, though single readings scatter; cell line not stated here;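 further: potency means the concentration at half of the fitted maximal effect; % of control where 0% means no effect; nearly all actives have a fitted effect of over 65% in size; a mitochondrial uncoupler was the plate control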
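Measures PINK1 amount and localization on or inside mitochondria by immunofluorescence. Stable cells get compounds at 5 concentrations for 24 hours before fixation and staining; CCCP controls included.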
Menin-MLL FL inh: menin-MLL binding inhibition, fluorescein peptide. Fluorescence polarization, fluorescein-MLL peptide displacement from menin. FP activity change, % at 61.4 µM. 290,000 tested, under 10 active; inconclusive = falling polarisation curve, or a change in total fluorescence; inactive = total fluorescence flat and polarisation flat or rising; no compound was filed as active; the % refers to the polarisation; negative = inhibition;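 further: % of control where 0% means no effect; inhibitors lower the polarisation; unlabelled MLL peptide was the positive control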
ClpP mod: qHTS Assay for Activators of ClpP. Potency, µM (series often up to 57.5 µM), for the others: at the highest dose activity change, negative = active. ATP-dependent Clp protease proteolytic subunit (Bacillus subtilis (strain 168)), P80244. AID 651965, 2013. purified B. subtilis ClpP, FRET peptide cleavage, 20 min. hit rate 1.9% among 340,000; active = well fitted falling curve with a large enough effect; inconclusive = small, poorly fitted or top-dose-only effect; inactive = no such curve, though single readings can be large or run the other way; further: potency means the concentration at half of the fitted maximal effect; the source files actives as falling curves though it sought activators and does not explain the sign; nearly all actives have a fitted effect of over 65% in size; many hits overshoot -100%
Target sequence (P80244 whole entry, looked up): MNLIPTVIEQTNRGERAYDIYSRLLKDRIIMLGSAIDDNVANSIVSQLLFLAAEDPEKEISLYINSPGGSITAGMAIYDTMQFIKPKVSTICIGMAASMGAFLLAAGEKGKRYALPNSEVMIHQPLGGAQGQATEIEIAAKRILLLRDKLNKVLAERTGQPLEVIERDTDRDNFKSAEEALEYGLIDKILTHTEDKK
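FRET quenching reversal measured ClpP activation: 10 microg/mL B. subtilis ClpP at pH 8 with the FRET-FV decapeptide, read at 430 nm after 320 nm excitation. The 20-min minus 0-min signal was scaled between DMSO/no-enzyme wells and ADEP (5.8 microM final).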
gsp antag: antagonists of gsp mutant (McCune-Albright syndrome); gsp-mutant cells, cAMP HTRF, 30 min; control for the full effect not named in the record; Potency, µM (top dose mostly 76.9 µM), inactives show at the highest dose activity change, negative = inhibition, most hits filed as inhibitors; hit rate 0.4% among 340,000; active = falling curve of any shape with a large fitted effect; inconclusive = falling curve, mostly with a smaller effect; inactive = flat or rising curve; cell line not stated here;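 further: intracellular cAMP measured with PDE inhibitor Ro 20-1724 present during compound exposure; potency means the concentration at half of the fitted maximal effect; on the % scale 0 is the no-effect control and ±100 the full control effect; nearly all actives have a fitted effect of over 65% in size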
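Cells in G418 medium, seeded 16-24 h, 37C; buffer exchange to DPBS + 1 mM CaCl2, 0.5 mM MgCl2, 0.05% BSA; cpds in DMSO + […] (300 uM stock), 30 min 37C; HTRF cAMP detection.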
Sfp inh: Sfp phosphopantetheinyl transferase inhibition; Q9F4F7; Biochemical Sfp PPTase activity, qHTS; Potency, µM, for the others: max response, negative = inhibition, most hits filed as inhibitors; hit rate 3.5% among 310,000; AID 1490; active means well fitted inhibition curve with a large enough effect; inconclusive means small, poorly fitted or top-dose-only effect, or another doubt; inactive means no such curve, though single readings can be large or run the other way;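 further: the enzyme is Sfp with the accession as filed and its product quenches rhodamine fluorescence; potency means the concentration at half of the fitted maximal effect; 0% = enzyme reaction without inhibitor and -100% = no enzyme wells; top concentration of the series not given in the record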
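Fluorescence-quenching assay with 15 nM Sfp, 5 uM rhodamine-CoA and 12.5 uM BHQ-2-labelled ybbR peptide in pH 7.6 Hepes/MgCl2 buffer. Enzyme was pre-incubated with compound for 15 min at room temperature. Rate was taken from the 30-min fluorescence change (525/598 nm).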
Numbers without * were called inactive; ? = inconclusive; . = no result given; & = joins results of further samples; [ ] = remark or other dose.

entry	canonical_smiles	D2 ag	gsp agonist	PINK1 expr mod	Menin-MLL FL inh	ClpP mod	gsp antag	Sfp inh
1	CCOC(=O)c1c(SC)n(-c2ccccc2)c(=S)n(-c2ccccc2)c1=O	1.8	0%[15.4 µM]	4.2%	-11	.	-8%	12%
2	C=CCN(C(=O)CCC(=O)Nc1cc(C)on1)C(C(=O)NC1CCCC1)c1ccc(OC)cc1OC (centres undefined)	-2.8	2%[15.4 µM]	1.0%	-0.2	.	4%	9%
3	CCCCCCCC1=NN(c2ccc(S(=O)(=O)O)cc2)C(=O)C1N=O (centres undefined)	-10	-2%	5.7%	.	-0.9%	.	.
4	O=C(CSc1ccccc1F)Nc1ccc2c(c1)OCO2	-2.0	-9%[15.4 µM]	1.6%	.	0.9%	-6%	.
5	O=C(NCc1cccnc1)C(=O)NCC1OCCCN1S(=O)(=O)c1ccc(F)cc1 (centres undefined)	-2.5	9%	-0.2%	.	-2.9%	4%	13%
6	CCc1cc2c(=O)c(-c3nc4ccccc4n3C)c(C)oc2c(CN2CCOCC2)c1O	-1.9	1%	-2.3%[38.3 µM]	2.3	?	-11%	-4%
7	CC(=O)Nc1ccc(NC(=O)Nc2ccc3c(c2)N(C)C(=O)CS3)cc1	-1.8	-3%[15.4 µM]	0.3%	0.3	.	1%	-17%
8	Cn1c(NCCO)nc2c1c(=O)n(Cc1cccc(Cl)c1)c(=O)n2C	-4.7	-3%	0.0%	-5.0	-0.4%	11%	10%
9	O=C(Nn1cnnc1)c1cc([N+](=O)[O-])cc([N+](=O)[O-])c1	8.5	-8%	3.5%	-0.5	-4.1%	0%	13%
10	c1cncc(CNc2ncnc3sccc23)c1	1.1	-16%	0.1%	-3.5	.	13%	21%
11	CCCNC(=O)c1ccc2snnc2c1	0.2	26%	-2.1%	-0.1	1.2%	6%	7%
12	Cc1c(C)n(CCc2ccccc2)c2ncnc(NCCCO)c12	-0.8	13%	4.5%	-5.7	-5.6%	-14%	0%
13	O=C(Nc1ccc2nc(-c3ccco3)c(-c3ccco3)nc2c1)NC1CC1	4.9	10%[15.4 µM]	0.9%	?	0.4%	-14%	5µM*
14	O=C1/C(=C/c2ccc(O)cc2)SC(=S)N1CC1CCCO1 (centres undefined)	-6.2	?	?	?	.	0%	-16%
15	O=C(CCCN1C(=O)C2C3C=CC(C3)C2C1=O)N1CCN(c2ccccc2)CC1 (centres undefined)	-3.8	-12%	-2.5%	0.2	0.4%	3%	-3%

Exported with two lines to a compound: two of the compounds above
Order of results: D2 ag, gsp agonist, PINK1 expr mod, Menin-MLL FL inh, ClpP mod, gsp antag, Sfp inh
(2) C=CCN(C(=O)CCC(=O)Nc1cc(C)on1)C(C(=O)NC1CCCC1)c1ccc(OC)cc1OC (centres undefined)
→ -2.8, 2%[15.4 µM], 1.0%, -0.2, ., 4%, 9%
(13) O=C(Nc1ccc2nc(-c3ccco3)c(-c3ccco3)nc2c1)NC1CC1
→ 4.9, 10%[15.4 µM], 0.9%, ?, 0.4%, -14%, 5µM*

Next section:
entry	canonical_smiles	D2 ag	gsp agonist	PINK1 expr mod	Menin-MLL FL inh	ClpP mod	gsp antag	Sfp inh
16	COc1ccc(CC(=O)NC(c2ccccc2)c2ccc(C)cc2)c(OC)c1 (centres undefined)	-1.4	-3%[15.4 µM]	7.3%	-12	.	-17%	-8%
17	N#CCCN(C(=O)Nc1ccccc1)C1CCCCC1	2.6	2%	0.2%	.	.	3%	.
18	CCOC(=O)c1c(C)[nH]c(C2=NNC(=Nc3ccccc3)SC2)c1C	-1.0	-30%	?	13	-9.6%	-2%	40µM*
19	COc1cccc(N2CCN(C(=O)c3cccc(NC(=O)C4=C(C)OCCS4)c3)CC2)c1	5.6	7%	1.5%	.	-0.6%	.	.
20	Cc1cccc(OCCOCCN2CCNCC2)c1C	0.8	3%	-0.8%	-1.3	-9.0%	4%	19%
21	COc1cc2c(cc1OC)C(C1C(=O)CC(C)(C)CC1=O)N(C(=O)CCl)CC2 (centres undefined)	-1.9	20%[15.4 µM]	0.1%	2.4	.	3%	7%
22	OC1(c2cccs2)CN(c2ccccc2)C2=[N+]1CCCC2 (centres undefined)	0.2	-1%[15.4 µM]	-1.7%	-2.7	.	7%	19%
23	CCn1cc(C(=O)NCCc2ccc(Cl)cc2)c(=O)c2ccc(C)nc21	-3.6	?	0.5%	3.9	-1.9%	2%	15%
24	COc1cc2c(cc1OC)C(C)N(S(=O)(=O)c1ccc(Cl)nc1)CC2 (centres undefined)	-4.4	-4%	2.4%	.	0.2%	-3%	4%
25	NC(=O)c1ccc(NC(=O)CSc2nnc(C3CCCCC3)n2N)cc1	-2.1	?	-1.8%	1.5	1.7%	12%	7%
26	C=CCSC1=C(C#N)C(c2cccc(OC)c2)CC(=O)N1 (centres undefined)	-3.0	17%	0.2%	-1.5	1.1%	-6%	35µM*
27	Cc1ccc(NC(=S)N2CCN(S(=O)(=O)c3ccccc3)CC2)cc1	2.8	16%	0.7%	.	0.5%	-15%	22%
28	CCN(C(=S)NC(=O)c1ccco1)c1cccc2ccccc12	?	20%	-1.0%	.	3.7%	7%	.
29	Cc1cc(C)c2c(CN3CCCC3)cc(=O)oc2c1	-6.1	.	0.3%	.	-6.6%	.	.
30	O=C(Cc1ccc(F)cc1)NC1CCCC1	-3.0	-14%	0.8%	-0.3	-12%	0%	21%
31	Cc1ccccc1N1CCN(CCCOc2ccc3c(C)cc(=O)oc3c2)CC1	15	0%	.	0.6	35µM*	-12%	-27%
32	Cc1cc(C)c(NC(=O)COC(=O)c2ccc([N+](=O)[O-])s2)c(C)c1	-2.0	-3%	0.2%	5.0	-2.6%	10%	5%
33	CCn1cc(C(=O)NCc2ccc3c(c2)OCO3)c(=O)c2cc(F)c(N3CCN(C(=O)c4ccco4)CC3)cc21	1.9	0%	3.0%	4.0	25µM*	?	-7%
34	N/C(=N\OC(=O)COc1ccc(Br)cc1Cl)c1cccnc1	2.1	19%	6.4%	3.4	-0.8%	5%	2%
35	Cc1ccc(C(=O)OCC(=O)Nc2cc(Cl)ccc2C#N)o1	-1.4	-90%[inhibitor]	0.1%	.	1.7%	.	.
36	COc1ccc(OC)c(Nc2cc(C)nc3nc(C)nn23)c1	-3.6	-73%[inhibitor]	11%	-0.7	-0.1%	-5%	20%
37	O=C(COc1cccc(F)c1)NNC(=O)Cc1ccc(S(=O)(=O)N2CCOCC2)s1	13	9%	0.1%	.	-1.6%	-4%	.
38	COc1cccc(NC(=O)CN2C(=O)COc3ccc(S(=O)(=O)N4CCCCCC4)cc32)c1	-3.2	-15%	2.4%&3.4%	1.8	1.3%&-4.4%	-6%	9%
39	Cc1ncc([N+](=O)[O-])n1CC(=O)Nc1ccc(F)c(F)c1	1.8	?	0.4%	2.9	.	-2%	6%
40	COc1ccccc1C(=O)Nc1ccc(Br)c2cccnc12	0.7	-26%	2.5%	0.6	3.7%	-2%	14%
41	CC(C(=O)c1c[nH]c(C(=O)N=CN(C)C)c1)c1ncc(C(F)(F)F)cc1Cl (centres undefined)	-5.0	?	4.3%	1.5	.	-2%	3%
42	OC[C@@H]1CN(Cc2ccco2)C[C@H](n2cnc3c(NCc4ccncc4)ncnc32)O1	5.1	.	-0.7%	.	-1.7%	.	.
43	NC(=O)c1cc(-c2ccccc2)sc1NC(=O)CN1CCCCC1	2.2	1%	-2.0%	-1.4	.	?	-7%
44	COc1cccc(-c2nnn(CC(=O)NC3CCCC3)n2)c1OC	2.8	-3%	-0.5%	-1.4	4.7%	-10%	27%
45	CCOc1ccc(Br)cc1C(=O)N/N=C/c1cccc(C)n1	2.7	11%	7.3%	-8.0	-2.0%	10%	10%
46	CC1CCCC(C)N1C(=O)COC(=O)c1cc(Br)ccc1Cl (centres undefined)	2.5	11%	4.2%	0.2	.	-5%	11%
47	CC(C)(C)NC(=O)NC(=O)COc1ccc(Br)cc1Br	0.8	-9%	27%	10	-2.0%	-9%	-3%
48	CCCn1c(SCC(=O)Nc2ccc3c(c2)OCO3)nc2c1c(=O)n(C)c(=O)n2C	0.3	29%	1.8%[38.3 µM]	6.4	-1.9%	6%	0%
49	C[C@]12C(=O)N(c3cccc(Cl)c3)C(=O)N1[C@H]1c3ccccc3OC[C@@H]1[C@H]2c1ccccc1	-1.0	.	1.3%	-8.4	-0.4%	0%	14%
50	COc1ccc(CCNC(=O)c2cccc(S(=O)(=O)N3CCc4ccccc4C3)c2)cc1	5.7	25%	0.2%	.	-2.7%	-11%	.
51	CCCNC(=O)NS(=O)(=O)c1ccc(Cl)cc1	-1.4	.	2.6%	-2.4	2.5%	-5%	7%&13%&17%&1%
52	COc1ccc(/C=C2\SC(=O)N(CCC(=O)N3CCCCC3)C2=O)cc1OC	0.2	-22%	-0.3%	.	.	-9%	1%
53	COc1ccc(CC(=O)Nc2cccc(S(=O)(=O)N3CCCCC3)c2)cc1	0.4	-6%	2.9%	.	0.3%	-17%	.
54	COc1ccc(C)cc1N(CC(=O)N1CCc2ccccc2C1)S(C)(=O)=O	-1.1	-2%	-1.5%	-3.3	2.9%	-1%	18%
55	O=C(N/C(=C\c1cccs1)C(=O)N1CCCCCC1)c1ccccc1	-1.4	10%	-1.6%[38.3 µM]	1.3	0.0%	0%	1%
56	CC(C)(C)OC(=O)N1Cc2ccccc2C[C@H]1C(=O)N1CCC[C@H]1C(=O)O	-1.7	16%	-1.3%	-21	.	7%	8%
57	CCOc1ccc(C(=O)OCC(=O)NCc2ccccc2)cc1OCC	-2.7	-4%[15.4 µM]	-0.8%	.	-2.9%	4%	.
58	CSc1nc2ncc(C(=O)O)c(N)n2n1	-3.0	1%[15.4 µM]	0.1%	-0.1	.	-1%	4%
59	O=C(CNC(=O)c1ccco1)OCc1ccccc1Cl	4.8	9%	-1.1%	.	.	-8%	.
60	CCCCCCNC(=O)CC(NS(=O)(=O)c1ccc(OC)cc1)C(C)C (centres undefined)	-3.7	-18%[15.4 µM]	2.3%	0.5	1.5%	5%	11%
